Screening data as filed in PubChem.
NOMO-1 viab: NOMO-1 AML cell viability reduction, primary screen, STK33 inhibitor project, CellTiter-Glo luminescence | actives 7.5% (n = 37,000) | inhibition, % (no concentration beside the values) | NOMO-1 AML viability, 72 h | AID 2330, 2010;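 active = most replicates above 80%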;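 also: wells of about 30 µL received 25 nL stock; 0% = median of vehicle wells and 100% = reference inhibitor level; the first replicate is given; inactives centre near 10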
Numbers without * were called inactive.

Screening Cc1nn(CC(=O)Nc2sc3c(c2C#N)CCCC3)c(C)c1[N+](=O)[O-] returned NOMO-1 viab -1.3.
Screening Cc1nc(SCC(=O)c2ccc3c(c2)OCCO3)c2c3c(sc2n1)CCC3 returned NOMO-1 viab 20.6.
Cc1ccc(NC(=O)COc2ccc(Cl)c(C)c2)c([N+](=O)[O-])c1 was read as NOMO-1 viab 4.8.
For C[C@H](CO)N1C[C@H](C)[C@H](CN(C)S(=O)(=O)c2cn(C)cn2)Oc2c(NC(=O)C3CCOCC3)cccc2C1=O the results were NOMO-1 viab -19.6.
COc1cc2c(ccc3cc(OC)c(OC)c(O)c32)cc1O was read as NOMO-1 viab 58.0.
Screening C[C@@H]1CCCCO[C@@H](CN(C)S(=O)(=O)c2ccc(Cl)cc2)[C@@H](C)CN([C@H](C)CO)C(=O)c2cc(NC(=O)Cc3ccccc3)ccc2O1 returned NOMO-1 viab 53.6.
CCc1ccc(OCC(=O)Nc2cccnc2)c(Br)c1 was read as NOMO-1 viab 25.1.
Screening Cc1cccc(C)c1NC(=O)CN1CCN(CCCC(c2ccc(F)cc2)c2ccc(F)cc2)CC1 returned NOMO-1 viab 58.2.
Screening C[C@H](CO)N1C[C@H](C)[C@H](CN(C)S(=O)(=O)c2ccccc2)Oc2ccc(NS(=O)(=O)c3ccc(F)cc3)cc2C1=O returned NOMO-1 viab 17.7.
Cc1noc(C)c1S(=O)(=O)N(C)C[C@@H]1Oc2c(NS(=O)(=O)c3ccc(F)cc3)cccc2C(=O)N([C@H](C)CO)C[C@@H]1C was read as NOMO-1 viab 10.5.
For C[C@@H]1CN([C@@H](C)CO)C(=O)Cc2cc(NC(=O)Nc3ccc(F)cc3)ccc2O[C@@H]1CN(C)Cc1ccc(C(=O)Nc2ccccc2N)cc1 the results were NOMO-1 viab 113.3*.
For O=C1/C(=C/c2ccc(-c3nn[nH]n3)cc2)C(c2ccccc2)Oc2ccccc21 (centres undefined) the results were NOMO-1 viab 57.1.
Screening COc1ccc(NC(=O)N(C)C[C@@H]2Oc3ccc(NS(=O)(=O)c4ccccc4)cc3C(=O)N([C@@H](C)CO)C[C@H]2C)cc1 returned NOMO-1 viab 23.8.
Screening C[C@H]1CN([C@@H](C)CO)C(=O)c2cc(NC(=O)Cn3cnnn3)ccc2O[C@@H]1CN(C)C(=O)Nc1cccc2ccccc12 returned NOMO-1 viab 11.6.
COC(=O)c1ccc(-n2c(CCC(=O)O)ccc2-c2ccc(OC)cc2)cc1 was read as NOMO-1 viab 8.1.
O=C(CSc1n[nH]c(-c2ccc(Cl)cc2)n1)c1ccc(Br)cc1 was read as NOMO-1 viab 30.4.
O=C(CSc1nc(-c2ccccc2)c(-c2ccccc2)[nH]1)Nc1ccccc1Cl was read as NOMO-1 viab 49.4.
Screening COc1ccc(-c2nc3ccccc3s2)cc1 returned NOMO-1 viab 72.1.
CC(=O)c1ccc(NC(=O)CSc2nnc(C34CC5CC(CC(C5)C3)C4)n2C)cc1 was read as NOMO-1 viab 4.6.
CS(=O)(=O)N(CC(=O)Nc1cccnc1)c1ccc2c(c1)OCCO2 was read as NOMO-1 viab -0.2.
Screening CNC[C@H]1Oc2ccc(NC(=O)c3ccncc3)cc2C(=O)N([C@@H](C)CO)C[C@@H]1C returned NOMO-1 viab -7.5.
C[C@H](CO)N1C[C@H](C)[C@@H](CN(C)Cc2ccc(-c3ccccc3)cc2)Oc2c(NC(=O)CCCCCC(=O)Nc3ccccc3N)cccc2C1=O was read as NOMO-1 viab 125.0*.
Cc1ccc(S(=O)(=O)N2C(=O)CCC2C(=O)Nc2ccccc2-c2ccccc2)cc1 (centres undefined) was read as NOMO-1 viab -6.9.
Screening Cc1nnc(SCC(=O)Nc2cccc(Cl)c2Cl)s1 returned NOMO-1 viab 16.5.
C[C@@H]1CN([C@H](C)CO)C(=O)Cc2cc(NS(=O)(=O)c3cccs3)ccc2O[C@H]1CN(C)Cc1ccc(Oc2ccccc2)cc1 was read as NOMO-1 viab 88.5*.
For CN(C)CCn1nnc2c(=O)oc3ccccc3c21 the results were NOMO-1 viab 25.7.
`C[C@@H]1CCCCO[C@H](CN(C)S(=O)(=O)c2cccs2)[C@@H](C)CN([C@H](C)CO)C(=O)c2cc(NC(=O)c3ccccc3)ccc2O1` gave NOMO-1 viab 4.5.
For C[C@@H]1CCCCO[C@@H](CN(C)C(=O)Nc2cccc3ccccc23)[C@@H](C)CN([C@H](C)CO)C(=O)c2cc(NC(=O)Nc3ccc4c(c3)OCO4)ccc2O1 the results were NOMO-1 viab 35.6.
Screening COc1ccc(NC(=O)N(C)C[C@H]2Oc3ccc(NS(=O)(=O)c4ccc(F)cc4)cc3C(=O)N([C@@H](C)CO)C[C@H]2C)cc1 returned NOMO-1 viab -7.2.
N#CCCN(CCC#N)C(=O)c1cc(-c2ccccc2)nc2ccccc12 was read as NOMO-1 viab 17.3.
Screening Cc1cc(C(=O)NCc2nc(-c3ccccc3)no2)ccc1[N+](=O)[O-] returned NOMO-1 viab -2.3.
Screening Cc1ccc(N(CC(O)Cn2c3ccccc3c3ccccc32)S(C)(=O)=O)cc1 (centres undefined) returned NOMO-1 viab 43.8.
O=C(CC1NCCNC1=O)Nc1ccc(F)cc1 (centres undefined) was read as NOMO-1 viab 0.6.
COc1ccc(S(=O)(=O)Nc2cccc3c2O[C@H](CN(C)S(=O)(=O)c2c(C)noc2C)[C@@H](C)CN([C@@H](C)CO)C3=O)cc1 was read as NOMO-1 viab 1.6.
Screening C[C@@H]1CN([C@H](C)CO)C(=O)c2cc(NC(=O)CCCCCC(=O)Nc3ccccc3N)ccc2O[C@@H]1CN(C)Cc1ccccc1 returned NOMO-1 viab 42.3.
Screening Cc1cc(C(=O)Nc2cccc3c2O[C@H](CN(C)Cc2ccccc2)[C@H](C)CN([C@@H](C)CO)C3=O)n(C)n1 returned NOMO-1 viab 16.7.
For Cc1ccc(-c2cc(C)nc(SCC(=O)Nc3ccc(F)cc3)n2)cc1 the results were NOMO-1 viab 38.4.
Cc1ccc(S(=O)(=O)Nc2ccc3c(c2)CC(=O)N([C@H](C)CO)C[C@@H](C)[C@H](CN(C)Cc2ccc(C(=O)Nc4ccccc4N)cc2)O3)cc1 was read as NOMO-1 viab 36.5.
Screening Cc1cc(Nc2ccccc2NC(=O)c2ccc([N+](=O)[O-])cc2)n(-c2ccccc2)n1 returned NOMO-1 viab 38.9.
Screening Cc1noc(C)c1NC(=O)N(C)C[C@@H]1Oc2ccc(NS(=O)(=O)c3c(C)noc3C)cc2C(=O)N([C@H](C)CO)C[C@@H]1C returned NOMO-1 viab -19.7.

By substructure: the compounds so far with a nitro group on carbon (4)
Screening Cc1nn(CC(=O)Nc2sc3c(c2C#N)CCCC3)c(C)c1[N+](=O)[O-] returned NOMO-1 viab -1.3.
Cc1ccc(NC(=O)COc2ccc(Cl)c(C)c2)c([N+](=O)[O-])c1 was read as NOMO-1 viab 4.8.
Screening Cc1cc(C(=O)NCc2nc(-c3ccccc3)no2)ccc1[N+](=O)[O-] returned NOMO-1 viab -2.3.
Screening Cc1cc(Nc2ccccc2NC(=O)c2ccc([N+](=O)[O-])cc2)n(-c2ccccc2)n1 returned NOMO-1 viab 38.9.

Returning to the listing, repeating the two entries before the break.
Screening Cc1cc(Nc2ccccc2NC(=O)c2ccc([N+](=O)[O-])cc2)n(-c2ccccc2)n1 returned NOMO-1 viab 38.9.
Screening Cc1noc(C)c1NC(=O)N(C)C[C@@H]1Oc2ccc(NS(=O)(=O)c3c(C)noc3C)cc2C(=O)N([C@H](C)CO)C[C@@H]1C returned NOMO-1 viab -19.7.
`C/C=C(/C)C(=O)O[C@@H]1C[C@@H](OC(=O)/C(C)=C\C)[C@](C)(CO)C2C3C(=O)C[C@@H](C)C2[C@]31C` gave NOMO-1 viab 13.2.
Screening C[C@H]1CN([C@@H](C)CO)C(=O)Cc2cc(NS(=O)(=O)c3ccccc3)ccc2O[C@H]1CN(C)C(=O)Nc1ccc2c(c1)OCO2 returned NOMO-1 viab -0.2.
`COc1ccc(NC(=O)N(C)C[C@@H]2Oc3ccc(NS(=O)(=O)c4cn(C)cn4)cc3C(=O)N([C@H](C)CO)C[C@H]2C)cc1` gave NOMO-1 viab 1.1.
For C[C@@H]1CN([C@H](C)CO)C(=O)c2cccc(NC(=O)c3nc4ccccc4s3)c2O[C@H]1CN(C)C(=O)Nc1ccccc1 the results were NOMO-1 viab 10.2.
For C[C@H]1CN([C@@H](C)CO)C(=O)c2cccc(NC(=O)c3nc4ccccc4s3)c2O[C@@H]1CN(C)Cc1ccncc1 the results were NOMO-1 viab 35.0.
C[C@@H]1CN([C@@H](C)CO)C(=O)c2cc(NS(=O)(=O)c3ccc(Cl)cc3)ccc2O[C@H]1CN(C)Cc1ccc(-c2ccccc2)cc1 was read as NOMO-1 viab 106.3*.
CC(C)NC(=O)N(C)C[C@H]1Oc2ccc(NS(=O)(=O)c3ccc(F)cc3)cc2CC(=O)N([C@@H](C)CO)C[C@@H]1C was read as NOMO-1 viab 13.1.
O=C(CSc1ncn[nH]1)NCc1ccccc1 was read as NOMO-1 viab 3.0.
C[C@@H]1CCCCO[C@H](CN(C)S(=O)(=O)c2cccs2)[C@@H](C)CN([C@H](C)CO)C(=O)c2cc(NC(=O)CCC(F)(F)F)ccc2O1 was read as NOMO-1 viab -10.4.
For Nc1ncnc2c1ncn2CCNCCc1ccccc1 the results were NOMO-1 viab -1.4.
For COc1cc(Cc2nccc3cc(OC)c(OC)cc23)c(NC(=O)c2cccc(Br)c2)cc1OC the results were NOMO-1 viab 8.5.
`COc1ccc(CN(C)C[C@H]2Oc3ccc(NC(=O)CCCCCC(=O)Nc4ccccc4N)cc3C(=O)N([C@H](C)CO)C[C@H]2C)cc1` gave NOMO-1 viab 25.7.
For C[C@@H]1CN([C@H](C)CO)C(=O)c2cccc(NC(=O)c3nc4ccccc4s3)c2O[C@H]1CN(C)Cc1ccc(-c2ccccc2)cc1 the results were NOMO-1 viab 53.0.
`CCn1c(SCC(=O)Nc2ccc(Br)cc2Cl)nnc1-c1cccc([N+](=O)[O-])c1` gave NOMO-1 viab 24.8.
Screening O=C(Nc1ccccc1[N+](=O)[O-])C1Cc2ccccc2CN1S(=O)(=O)c1ccc(F)cc1 (centres undefined) returned NOMO-1 viab 11.3.
For CC1OC(OC2C(O)C(CO)OC(O[C@H]3CC[C@@]4(C)C(CC[C@]5(C)C4CC=C4C6CC(C)(C)CC[C@]6(C(=O)OC6OCC(OC7OCC(O)C(O)C7O)C(O)C6O)CC[C@]45C)C3(C)C)C2O)C(O)C(OC2OCC(O)(CO)C2O)C1O (some centres undefined) the results were NOMO-1 viab 121.7*.
`O=C(NCc1ccccn1)C1CCCN(S(=O)(=O)c2ccccc2)C1` (centres undefined) gave NOMO-1 viab 18.2.
COc1ccc(CN(C)C[C@H]2Oc3ccc(NC(=O)Cn4cnnn4)cc3CC(=O)N([C@@H](C)CO)C[C@@H]2C)cc1 was read as NOMO-1 viab 23.0.
`C[C@@H]1CN([C@H](C)CO)C(=O)c2cccc(NC(=O)Nc3ccc4c(c3)OCO4)c2O[C@H]1CN(C)S(=O)(=O)c1cn(C)cn1` gave NOMO-1 viab 29.0.
Cn1nc(-c2ccc(OCC(=O)Nc3cccnc3)cc2)c2ccccc2c1=O was read as NOMO-1 viab 62.7.
Screening C[C@H]1CN([C@@H](C)CO)C(=O)c2cccc(NC(=O)Nc3ccc4c(c3)OCO4)c2O[C@H]1CN(C)S(C)(=O)=O returned NOMO-1 viab 5.8.
C[C@H]1CN([C@@H](C)CO)C(=O)c2cc(NC(=O)c3ccncc3)ccc2O[C@@H]1CN(C)C(=O)Nc1ccc(F)cc1 was read as NOMO-1 viab -1.8.
Screening O=C(NCCCn1ccnc1)c1cc(-c2cccnc2)nc2ccc(Cl)cc12 returned NOMO-1 viab -6.1.
C[C@H]1CN([C@@H](C)CO)C(=O)Cc2cc(NS(=O)(=O)c3ccc(Cl)cc3)ccc2O[C@@H]1CN(C)C(=O)Nc1ccc2c(c1)OCO2 was read as NOMO-1 viab -10.5.
For CC(=O)Nc1ccccc1NC(=O)CN(C)S(=O)(=O)c1ccc(Cl)cc1 the results were NOMO-1 viab 3.9.
Screening COC(=O)C1=CO[C@@H](O[C@@H]2O[C@H](CO)[C@@H](O)[C@H](O)[C@H]2O)C2C1CCC2(C)O (some centres undefined) returned NOMO-1 viab -0.2.
Screening C[C@@H]1CN([C@H](C)CO)C(=O)Cc2cc(NS(=O)(=O)c3cccs3)ccc2O[C@@H]1CN(C)C(=O)Nc1ccccc1 returned NOMO-1 viab 23.1.
Screening C[C@@H]1CN([C@@H](C)CO)C(=O)c2cc(NC(=O)Nc3ccccc3)ccc2O[C@@H]1CN(C)C(=O)Nc1ccc(F)cc1 returned NOMO-1 viab 35.8.
CCCC1CCC(c2ccc(OC(=O)c3ccco3)cc2)CC1 (centres undefined) was read as NOMO-1 viab 9.9.
`C[C@H]1CN([C@@H](C)CO)C(=O)Cc2cc(NS(=O)(=O)c3ccc(F)cc3)ccc2O[C@H]1CN(C)CC1CCCCC1` gave NOMO-1 viab 114.7*.
`COc1cccc(CN2CCN(C(=S)Nc3ccc(S(N)(=O)=O)cc3)CC2)c1` gave NOMO-1 viab 11.7.
For C[C@@H]1CN([C@H](C)CO)C(=O)c2cccc(NC(=O)C3CCCCC3)c2O[C@H]1CN(C)S(=O)(=O)c1cn(C)cn1 the results were NOMO-1 viab 9.7.
For CC(C)NC(=O)Nc1ccc2c(c1)C(=O)N([C@@H](C)CO)C[C@H](C)[C@H](CN(C)S(=O)(=O)c1cccs1)O2 the results were NOMO-1 viab 9.4.

Not all compounds are listed; count on the stated rates, not on these rows.
